# Screening results from PubChem BioAssay.
# TRPML1 inh: blocks the human TRPML1 channel | Q9GZU1 | TRPML1-inducible cells, Ca2+ dye fluorescence, FDSS; stronger effect = lower value; inhibition of EC80 agonist-evoked calcium signal | activity change, negative = inhibition, % (concentration not given with the values) | 0.02% of 390,000 active | AID 624415; in the data active means activity change below about -50%; inconclusive means about -30% to -50%; inactive means above about -30%;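 also: stimulus is agonist 54-4 at its EC80 concentration; % is scaled to controls: 0 for no effect and ±100 for the full control effect; compound concentration not given in the record; the text of the record puts the active cut at -80%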
#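 Tet-induced TRPML1-DL cells loaded with Ca8 no-wash calcium dye were read kinetically on FDSS. Compound addition was followed by EC80 agonist 54-4 (4 uM final); inhibition was read over 110 s.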
# ClpP mod: qHTS Assay for Activators of ClpP. ATP-dependent Clp protease proteolytic subunit (Bacillus subtilis (strain 168)), P80244. purified B. subtilis ClpP, FRET peptide cleavage, 20 min. Potency, µM (titrated, usually from 57.5 µM), inactives show at the top dose activity change, negative = active. 1.9% of 340,000 active. AID 651965, 2013; active = well fitted falling curve with a large enough effect; inconclusive = small, poorly fitted or top-dose-only effect; inactive = no such curve, though single readings can be large or run the other way; also: potency is read from the fitted curve at half-maximal effect; the source files actives as falling curves though it sought activators and does not explain the sign; nearly all actives have a fitted effect of over 65% in size; many hits overshoot -100%
# Target sequence (P80244 whole entry, looked up): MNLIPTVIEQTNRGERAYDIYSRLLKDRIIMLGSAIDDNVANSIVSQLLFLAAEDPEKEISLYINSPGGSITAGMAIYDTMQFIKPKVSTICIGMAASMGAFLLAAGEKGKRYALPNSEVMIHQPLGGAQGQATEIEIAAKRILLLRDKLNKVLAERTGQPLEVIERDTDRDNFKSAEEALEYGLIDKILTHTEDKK
#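 Purified B. subtilis ClpP, 10 microg/mL final in Tris/HCl pH8 with KCl, BSA, glycerol and Tween-20, cleaved an Abz/nitrotyrosine-quenched decapeptide. Fluorescence (ex 320, em 430) was read at 0 and 20 min at room temperature. Delta was normalized to 5.8 microM ADEP and DMSO/no-enzyme controls.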
# Menin-MLL FL inh: menin-MLL binding inhibition, fluorescein peptide; Fluorescence polarization, fluorescein-MLL peptide displacement from menin; FP activity change, % at 61.4 µM; 290,000 tested, under 10 active; AID 1766; inconclusive = falling polarisation curve, or a change in total fluorescence; inactive = total fluorescence flat and polarisation flat or rising; no compound was filed as active; the % refers to the polarisation; negative = inhibition;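 also: % of control where 0% means no effect; inhibitors lower the polarisation; unlabelled MLL peptide was the positive control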
# TRPML1 agonist: agonists of human TRPML1 channel | Q9GZU1 | TRPML1-expressing cells, Ca2+ dye fluorescence, FDSS; host cell line not named in the record; reference of the full effect not given here | activation, % (test concentration not listed) | 0.12% of 410,000 active | AID 624414; in the data active = activation above about 50%; inconclusive = about 30% to 50%; inactive = below about 30%; also: 0% is about no effect; the text of the record puts the active cut at 80%
#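 Tet-induced TRPML1-DL cells, 1,500 per well, cultured overnight, were loaded with a no-wash Ca2+ dye for 45–90 min. Calcium fluorescence was recorded on the FDSS for 110 s after compound addition, before the EC80 agonist (4 uM 54-4) was added.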
# TRPV1 PAM: enhances activation of the human vanilloid receptor TRPV1 | Q8NER1 | TRPV1-expressing cells, Fluo-8 calcium influx, capsaicin EC20 potentiation; host cell line not named in the record; control for the full effect not named in the record | potentiation, % at 8.33 µM | 0.02% of 320,000 active; active means potentiation above 80%; inconclusive means 30% to 80%; inactive means below 30%; also: 0% is about no effect
# Target sequence (Q8NER1 whole entry, looked up): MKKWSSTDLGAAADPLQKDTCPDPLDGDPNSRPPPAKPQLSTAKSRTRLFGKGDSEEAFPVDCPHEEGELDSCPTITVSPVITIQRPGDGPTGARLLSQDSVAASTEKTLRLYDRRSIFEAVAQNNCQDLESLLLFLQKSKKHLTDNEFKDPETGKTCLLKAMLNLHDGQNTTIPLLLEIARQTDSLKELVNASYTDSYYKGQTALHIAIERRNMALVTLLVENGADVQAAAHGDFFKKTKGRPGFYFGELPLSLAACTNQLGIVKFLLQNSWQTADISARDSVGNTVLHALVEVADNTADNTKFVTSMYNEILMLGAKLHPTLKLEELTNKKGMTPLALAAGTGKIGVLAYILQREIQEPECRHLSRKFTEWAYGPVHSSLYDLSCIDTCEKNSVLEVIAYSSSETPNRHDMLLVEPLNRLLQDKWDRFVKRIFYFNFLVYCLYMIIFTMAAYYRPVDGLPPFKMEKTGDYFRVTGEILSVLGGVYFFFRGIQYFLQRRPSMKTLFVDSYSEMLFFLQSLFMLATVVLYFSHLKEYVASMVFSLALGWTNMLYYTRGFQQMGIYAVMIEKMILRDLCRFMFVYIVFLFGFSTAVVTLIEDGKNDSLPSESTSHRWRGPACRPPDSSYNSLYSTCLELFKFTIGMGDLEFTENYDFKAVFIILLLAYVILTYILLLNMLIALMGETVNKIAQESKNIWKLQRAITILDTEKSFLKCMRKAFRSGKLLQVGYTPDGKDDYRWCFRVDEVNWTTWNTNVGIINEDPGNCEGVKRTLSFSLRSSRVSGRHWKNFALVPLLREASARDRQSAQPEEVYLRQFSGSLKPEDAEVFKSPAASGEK
#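 Cells expressing TRPV1 were dye-loaded with Fluo-8 and read kinetically: 10 s baseline, 3 min after compound (agonist portion), then 2 min after EC20 capsaicin (allosteric enhancer portion). Calcium-bound dye fluorescence at 480/520 nm.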
# PINK1 modulator: PINK1 expression modulation. PINK1 immunofluorescence, high-content cytometry, 24 h. Potency, µM (titrated, usually from 76.6 µM), without a hit: at the highest dose activation (PINK1 increase), hits mostly activators. 0.2% of 410,000 active. AID 624263; active = well fitted activation curve with a large enough effect; inconclusive = small, poorly fitted or top-dose-only effect; inactive = flat fitted curve, though single readings scatter; cell line not stated here;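 also: potency is read from the fitted curve at half-maximal effect; % of control where 0% means no effect; nearly all actives have a fitted effect of over 65% in size; a mitochondrial uncoupler was the plate control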
#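 PINK1 protein, normally rapidly degraded, was detected by immunofluorescence after 24 hour compound treatment of a stable cell line. Titration data (5 concentrations) came from laser-scanning cytometry, with CCCP-treated wells as controls.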
# Sfp inh: Sfp phosphopantetheinyl transferase inhibition | Q9F4F7 | Biochemical Sfp PPTase activity, qHTS | Potency, µM, inactives show max response, negative = inhibition, hits mostly inhibitors | 3.5% of 310,000 active; active = well fitted inhibition curve with a large enough effect; inconclusive = small, poorly fitted or top-dose-only effect, or another doubt; inactive = no such curve, though single readings can be large or run the other way;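 also: the enzyme is Sfp with the accession as filed and its product quenches rhodamine fluorescence; potency is read from the fitted curve at half-maximal effect; 0% = enzyme reaction without inhibitor and -100% = no enzyme wells; top concentration of the series not given in the record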
#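 Buffer: 50 mM Hepes-Na pH 7.6, 10 mM MgCl2, 0.01% Nonidet P-40, 0.01% BSA. Enzyme 15 nM, pre-exposed to compound 15 min; substrates then added and fluorescence change tracked over 30 min.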
# Active calls of the source: *; ? = inconclusive; / = no result given; & = joins results of further samples; [ ] = another dose, or the depositor's remark.
# Every second line gives: TRPML1 inh, ClpP mod, Menin-MLL FL inh, TRPML1 agonist, TRPV1 PAM, PINK1 modulator, Sfp inh
> COc1ccc(-c2nc3c(c4nnc(SC(C)C(=O)Nc5ccccc5)n24)COC(C)(C)C3)cc1 (centres undefined)
 : 20, -1.4%, 0.3, 0.5, ?, 1.7%, 15%
> CCN(CC(=O)Nc1c(F)cccc1F)C(=O)c1cc(S(=O)(=O)NCc2ccccc2)ccc1C
 : 6, -3.1%, /, 1.1, -1, -2.9%, /
> COc1ccc(NC(=O)CCNS(=O)(=O)c2ccc3c(c2)CCN3C(=O)C2CC2)cc1Cl
 : -19, -1.9%, /, -0.1, /, -2.7%, /
> CN1CCN(c2nc(-c3cccs3)cs2)CC1
 : 24, /, 0.4, -0.3, -7, 0.5%, 56µM*
> Cn1cccc1C(=O)NNC(=O)COc1ccccc1Cl
 : 0, 0.0%, /, -0.2, 4, 0.8%, /
> Cc1ccc(OCC(=O)NCc2ccco2)cc1C
 : -2, 2.1%, 5.9, -0.9, -5, 2.1%, ?
> Cc1nc(Nc2ccc3c(c2)OCCO3)c2nnn(Cc3ccccc3Cl)c2n1
 : 3, ?, 1.1, 0.5, -18, 7.2%[38.3 µM], 3%
> CC1=C(C(=O)OCc2ccccc2)C(c2ccccc2OS(=O)(=O)c2ccc(C)cc2)NC(=O)N1CCCC(=O)O (centres undefined)
 : 42, -0.2%, /, 0.7, /, -0.3%, /
> CCOC(=O)c1c(NC(=O)CSc2ncnc3[nH]ncc23)sc2c1CCC(C)C2 (centres undefined)
 : -3, /, 6.5, 1.4, 3, 3.4%, 2%
> COc1ccc(C)cc1Nc1nc(N)c2ccccc2n1
 : 5, /, 2.8, -0.1, 30, 1.7%, -12%
> Cc1ccc(SCc2nc3ncccn3c2Br)cc1
 : -8, /, -1.7, 0.1, 9, 0.6%, -9%
> COc1cc(C(C)=O)ccc1COc1ccc(C(=O)OCC(=O)NC2CCS(=O)(=O)C2)cc1OC (centres undefined)
 : 6, 2.0%, 0.8, 1.0, 7, 0.0%, -7%
> N/C(=N\OC(=O)c1ccc2c(c1)OCO2)c1cccc(Br)c1
 : -18, /, 3.6, 0.0, -7, 6.0%, 12%
> CSc1nc2c(cc1C#N)CCCCC2
 : -2, -7.6%, -0.6, -0.4, 8, 6.0%, 3%
> COc1ccc(S(=O)(=O)N(C)C)cc1NCC(=O)Nc1cccc(C#N)c1
 : -4, /, 2.3, -0.5, 7, 1.3%, 10%
> Cc1cccc(NC(=O)c2cc3c(C)nn(-c4ccccc4)c3s2)c1
 : ?, ?, /, -0.5, /, 4.4%, /
> O=C(CN1Cc2ccccc2C1=O)Nc1cc(F)ccc1F
 : -2, -1.5%, /, 1.1, /, 0.6%, /
> COc1ccc(C2CC(=O)N(c3ccccc3)C3=C2C(=O)CCC3)cc1 (centres undefined)
 : -6, -2.1%, -1.9, 0.3, 23, -0.3%, -8%
> c1ccc2c(c1)nc(N1CCOCC1)c1c3ccccc3[nH]c21
 : -3, ?, /, 1.5, -7, -7.7%[38.3 µM], ?
> C=CCNCCCCOc1ccccc1-c1ccccc1
 : -25, 0.5%, 1.7, -0.2, -2, 7.6%, 0%
> Cn1c(=O)c2c(nc(Br)n2CCSc2ncccn2)n(C)c1=O
 : 27, -0.1%, 2.3, 1.4, 6, 2.0%, 9%
> CC12CC(NC(=O)N1Cc1ccccc1)c1ccccc1O2 (centres undefined)
 : -3, -1.1%, -1.9, -0.2, 8, -0.3%[38.3 µM], 8%
> O=c1cc(CN2CCN(c3ccccc3)CC2)c2cc(O)c(-c3ccccc3)cc2o1
 : -2, -3.0%, 6.3, 0.3, ?, 6.5%, 0%
> CCn1c(=O)c(C(=O)Nc2ccccc2C)c(O)c2ccccc21
 : 4, -21%, 1.8, 0.5, -1, 7.0%[38.3 µM], 10%
> C[C@@H]1NC(=O)c2cc([N+](=O)[O-])cc(I)c2OCC[C@@H](C(=O)NC(CC(=O)O)C(N)=O)NC(=O)[C@H](CCC(=O)O)NC1=O (some centres undefined)
 : -7, -2.0%, -2.0, 0.1, 1, -0.4%, 16%
> Cc1cc(C)cc(NC(=O)COCc2cc(-c3ccc4c(c3)OCO4)on2)c1
 : 17, -10%, /, 2.0, /, 0.4%, /
> CN(C)CCCN1C(=O)C(O)=C(C(=O)c2cccs2)C1c1cccc([N+](=O)[O-])c1 (centres undefined)
 : /, /, -3.2, /, 6, /, 18%
> CCOc1ccc(NC(=O)CN(C)C(=O)c2cn(-c3ccc(F)cc3)nc2-c2cccc(OC)c2)cc1OCC
 : -3, -4.3%, /, 0.6, 10, -1.1%, /
> O=C(NCC(c1ccc(Cl)cc1)N1CCCCC1)c1ccccc1F (centres undefined)
 : -4, -1.7%, /, 1.0, /, 1.1%, /
> CCC(=O)N1C(C(=O)N2CCCC2)CSC1c1ccc(OC)cc1 (centres undefined)
 : 7, -1.1%, -4.3, 0.0, 5, 1.3%, 0%
> COc1cccc(/C=C2\SC(=S)NC2=O)c1OS(=O)(=O)c1ccc(NC(C)=O)cc1
 : 3, 0.0%, 5.6, -0.4, 14, -2.3%, -4%
> CCn1c(CNC(=O)c2cccs2)nnc1SCC(=O)NCCc1ccccc1
 : -3, 0.0%, -1.9, 0.1, 16, 3.4%[38.3 µM], 5%
> Cn1c(=O)c2c(nc(NCCNC(=O)c3ccco3)n2Cc2ccc(F)cc2)n(C)c1=O
 : 14, -0.6%, /, -1.4, -1, 2.5%, -4%
> CCOC(=O)c1sc(-c2ccc(Br)cc2)cc1N
 : 2, ?, 1.9, -0.1, 11, 2.8%[38.3 µM], -13%
> Cc1ccc(NS(=O)(=O)c2ccc(NC(=O)c3cccs3)cc2)c(C)c1
 : -2, -2.8%, 3.3, 0.3, -3, 5.0%, 11%
> O=C1c2ccccc2C(=O)c2cc(S(=O)(=O)Nc3ccccc3)ccc21
 : -17, 0.5%, 6.3, 5.6, 10, 13%, -25%
> O=C(O)CN1C(=O)SC(Nc2ccc(C(=O)O)cc2)C1=O (centres undefined)
 : 6, 0.5%, 2.1, -0.8, 2, 0.1%, -27%
> COc1ccccc1/C=N/n1c(C)nnc1-n1nc(C)cc1C
 : 7, -5.2%, 1.7, 0.7, -2, /, 17%
> COc1ccc(Cl)cc1NC(=S)N1CCN(S(C)(=O)=O)CC1
 : -4, -0.8%, -2.5, -0.6, -11, 0.6%, -21%
> Cc1ccc(N(C(=O)c2csnn2)C(C(=O)NC(C)(C)C)c2ccccn2)cc1 (centres undefined)
 : 10, /, 2.0, 0.8, 3, -1.1%, 16%
> COc1ccccc1C(=O)C1CCCN(C(=O)CSc2ccccn2)C1 (centres undefined)
 : -2, ?, 3.2, -1.3, 2, 2.5%, 2%
> O=C(O)c1ccccc1OCCOCCOc1ccccc1C(=O)O
 : -4, 0.1%, 3.8, 0.3, -10, -7.8%[38.3 µM], 8%
> O=C(COC(=O)c1ccc(NS(=O)(=O)c2cccs2)cc1O)Nc1ccc(F)cc1
 : 16, /, 7.0, 1.1, 12, 1.6%, 17%
> COc1cccc(OCc2nc(-c3cccc([N+](=O)[O-])c3)no2)c1
 : -5, /, 7.3, -0.1, 17, 9.5%, -14%
> CC1CC(C)CN(C(=O)/C=C/c2ccc([N+](=O)[O-])s2)C1 (centres undefined)
 : 8, 0.9%, 8.6, 4.2, ?, 3.4%, ?
> Cc1ccc(C2=NN=C(NC(=O)CSc3nncn3C)SC2)cc1
 : 3, 0.8%, -1.5, -1.5, 6, ?, 8.9µM*
> Cc1cc(C)c(S(=O)(=O)N2CCOC23CCN(S(C)(=O)=O)CC3)c(C)c1
 : 15, 1.0%, /, -0.9, /, 1.7%, /
> COC(=O)CCC(=O)OC1(C)C(=O)C=C2C=C(C3CC3)N(CCCCO)C=C2C1=O (centres undefined)
 : -1, 0.0%, -3.3[11.7 µM], 0.1, 25, 2.0%, 2%&11%
> COc1ccc(C(=O)CN2CCN(c3ncccn3)CC2)cc1
 : -2, /, -1.3, -0.6, 2, 0.5%, 50µM*
> C=CC[C@@H](CC(=O)N(CCO)Cc1ccccc1)C(=O)N[C@H](COC(=O)[C@@H](CC=C)Cc1ccc(F)cc1)Cc1ccccc1
 : 25, -0.2%, /, 2.3, /, 2.8%, /
> CCn1c(SCC(=O)NC2CCCC2)nnc1C(C)NC(=O)c1ccccc1Br (centres undefined)
 : -5, /, /, -0.5, 2, 1.8%, 13%
> COc1ccc(N2CCN(C(=O)c3cccn3-c3nnc(N4CCCC4)s3)CC2)cc1
 : 35, -6.5%, /, 2.3, /, -1.0%, /
> Cc1ccc(S(=O)(=O)N2CCN(C(=O)CC(C)n3nc(C)c(Cl)c3C)CC2)cc1 (centres undefined)
 : -10, 2.5%, -6.6, 0.7, 4, 0.6%, 12%
> COc1ccc(OC)c(-c2csc(NC(=O)C3=COCCO3)n2)c1
 : 11, 32µM*, /, -0.2, ?, 2.9%, /
> Cc1cccc(C(=O)NCC(=O)OCC(=O)c2ccc(Cl)s2)c1
 : 5, -0.6%, /, -0.5, -2, -0.5%, 15%
> Cc1ccc(NC(=O)C(=O)NCC2CCCN2S(=O)(=O)c2cccs2)cc1C (centres undefined)
 : 5, -1.5%, /, 1.1, 16, 0.0%, /
> CC1CCc2cc(F)ccc2N1C(=O)c1ccncc1 (centres undefined)
 : 13, 186%, 10, 0.4, 17, -0.2%, 1%
> COc1cc(NC(=O)COC(=O)CSc2ccccc2F)c(C)cc1[N+](=O)[O-]
 : -2, -2.8%, 7.2, 1.8, -20, 1.0%, ?

# In another format: entries from further up
CC1CCc2cc(F)ccc2N1C(=O)c1ccncc1 (centres undefined)
  TRPML1 inh: 13	ClpP mod: 186%	Menin-MLL FL inh: 10	TRPML1 agonist: 0.4	TRPV1 PAM: 17	PINK1 modulator: -0.2%	Sfp inh: 1%
Cc1cc(C)c(S(=O)(=O)N2CCOC23CCN(S(C)(=O)=O)CC3)c(C)c1
  TRPML1 inh: 15	ClpP mod: 1.0%	Menin-MLL FL inh: /	TRPML1 agonist: -0.9	TRPV1 PAM: /	PINK1 modulator: 1.7%	Sfp inh: /
